# YopH PTP inh: inhibitors of Yersinia enterocolitica YopH tyrosine phosphatase; inhibition, %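 (about 10 µM by stock and volumes)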; AID 898; 140,000 tested, 0.16% active; fluorescence Ex485/Em525;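 active = inhibition of 50% or more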;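 also: controls were vehicle for no effect and minimum signal wells for full effect; inactives centre near -20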
# Arbovirus anti: blocks arbovirus infection. inhibition, % at 10 µM. AID 1251. 200,000 tested, 0.37% active. arbovirus infection cell-based antiviral screen;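 active = inhibition from about 30%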;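 also: bluetongue infection of BSR cells; cell survival read as ATP light after 72 h; 0% = infected wells without compound and 100% = uninfected wells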
# RecA intein inh: inhibitors of M. tuberculosis RecA intein splicing; cell-free RecA intein splicing, fluorescence; inhibition, %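 (about 9 µM by stock and volumes)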; 290,000 tested, 0.75% active; in the data active = inhibition above about 30%; inconclusive = no clear call, values can overlap the other calls;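 also: 0% = vehicle wells and 100% = reference inhibitor control wells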
# Target sequence (P9WHJ3 whole entry, looked up): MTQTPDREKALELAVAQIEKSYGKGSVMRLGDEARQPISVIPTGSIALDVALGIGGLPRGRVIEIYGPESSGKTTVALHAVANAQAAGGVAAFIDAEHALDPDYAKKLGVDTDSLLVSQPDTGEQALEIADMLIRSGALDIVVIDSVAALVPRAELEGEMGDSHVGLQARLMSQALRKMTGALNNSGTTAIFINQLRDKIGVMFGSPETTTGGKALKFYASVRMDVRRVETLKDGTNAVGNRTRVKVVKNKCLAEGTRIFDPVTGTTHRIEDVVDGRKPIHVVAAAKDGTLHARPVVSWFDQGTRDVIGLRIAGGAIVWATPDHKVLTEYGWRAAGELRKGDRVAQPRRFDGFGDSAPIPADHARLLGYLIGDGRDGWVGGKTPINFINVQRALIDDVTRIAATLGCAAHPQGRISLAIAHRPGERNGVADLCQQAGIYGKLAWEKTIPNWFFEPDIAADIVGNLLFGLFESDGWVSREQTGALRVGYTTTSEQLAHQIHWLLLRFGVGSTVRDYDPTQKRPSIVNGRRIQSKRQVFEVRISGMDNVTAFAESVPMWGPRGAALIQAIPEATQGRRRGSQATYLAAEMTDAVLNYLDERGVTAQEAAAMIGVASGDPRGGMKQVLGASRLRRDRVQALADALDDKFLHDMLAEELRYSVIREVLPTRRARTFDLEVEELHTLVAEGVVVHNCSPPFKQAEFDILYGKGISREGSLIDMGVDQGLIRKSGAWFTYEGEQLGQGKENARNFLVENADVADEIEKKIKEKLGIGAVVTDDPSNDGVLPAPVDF
# Mtb bLac sens: beta-lactam sensitization of Mtb H37Rv. M. tuberculosis H37Rv growth with meropenem, percent inhibition; hits of this screen are not shown here. inhibition, % at 25 µM. 330,000 tested, 0.27% active;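 active = about 74% or more and at least 40 points above the plate without the antibiotic, then above 30% in a dose series; inconclusive = first-round hits that could not be retested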;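 also: growth measured after seven days incubation then overnight dye step; 0% = bacteria only wells and 100% = bacteria with antibiotic; twin plates without the antibiotic show which effects depend on it; some results filed as inactive read as strong as hits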
# Mtb growth: M. tuberculosis H37Rv growth inhibitors, H37Rv strain (AID 1626). M. tuberculosis H37Rv growth inhibition; higher % means a stronger effect. inhibition, % at 10 µM; hits with a dose series show IC50 in µM. 220,000 tested, 0.95% active;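 active = confirmed in a dose series; inconclusive = inhibition above 80% but not taken into the dose series; inactive = below 80% or under 30% at every dose of the series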;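 also: bacteria incubated seven days before Alamar blue readout; 0% = bacteria only wells and 100% = bacteria with antibiotic wells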
# Arbovirus anti repeat: further read-out of Arbovirus anti, marked with its call; inhibition, %; measured here: 10K subset replicate screen; many hits read low in the repeat;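 first of two repeat runs on a subset; 0% = infected and 100% = uninfected wells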
# * marks the source's active call; other numbers are inactive results; ? = inconclusive; . = no result given.
# A first look, 2 compounds:
SMILES,YopH PTP inh,Arbovirus anti,RecA intein inh,Mtb bLac sens,Mtb growth,others
Cc1cc(-c2nnc(CCC(=O)NCc3cccc(C(F)(F)F)c3)o2)no1,.,.,-0.6,-2,.,
CC1(C)CC(=O)c2cnc(NC(=O)Cc3ccc(Cl)cc3)nc2C1,12,-3,-12,-5,-7%,Arbovirus anti repeat=7

# This part in full, repeating the preview:
SMILES,YopH PTP inh,Arbovirus anti,RecA intein inh,Mtb bLac sens,Mtb growth,others
Cc1cc(-c2nnc(CCC(=O)NCc3cccc(C(F)(F)F)c3)o2)no1,.,.,-0.6,-2,.,
CC1(C)CC(=O)c2cnc(NC(=O)Cc3ccc(Cl)cc3)nc2C1,12,-3,-12,-5,-7%,Arbovirus anti repeat=7
O=C(NCc1ccc(OC(F)(F)F)cc1)C1CC2Cn3c(nc4ccccc43)C2N1c1ccccc1 (stereo unspecified),.,.,-2.2,41,.,
CC1(c2ccccc2)NC(=O)N(CC(=O)Nc2cccc(/C=C/c3ccccn3)c2)C1=O (stereo unspecified),.,.,2.0,4,.,
OCCC1CN(Cc2cccn2-c2cccnc2)CCN1C1CCCC1 (stereo unspecified),.,.,-4.0,-4,3%,
CC(C)(C)Cc1nnc(NS(=O)(=O)Cc2ccccc2)s1,-1,7,.,-10,0%,
Cc1ccnc(NC(=O)c2cc(S(=O)(=O)N3CCCCC3)ccc2Cl)c1,-11,3,2.6,4,-10%,
COc1ccccc1C(C(=O)NCc1ccccc1)N(C(=O)c1csnn1)C1CC1 (stereo unspecified),.,.,0.4,-1,.,
O=C(NCC(=O)N(CC1CCCO1)C(C(=O)NC1CCCCC1)c1ccccc1)c1cccs1 (stereo unspecified),-20,-4,3.9,7,-9%,
Cc1ccc(C(=O)c2coc3ccc(O)cc23)cc1,.,.,1.5,6,.,
CC(=O)c1ccc(-n2nncc2C(C)(C)C)cc1,-39,0,-3.7,5,10%,Arbovirus anti repeat=1
COc1ccccc1C1c2ccc3ccccc3c2Oc2ncn(CCCO)c(=N)c21 (stereo unspecified),.,.,11,10,.,
Cc1ccc(C)c(NC(=O)CN2C(=O)CC(C)S(=O)(=O)c3ccccc32)c1 (stereo unspecified),.,.,0.7,0,.,
CC1CCN(C(=O)/C(=C\c2ccco2)NC(=O)c2ccccc2)CC1,.,.,0.0,4,.,
O=C(c1ccc([N+](=O)[O-])cc1)N1CCC(Cc2ccccc2)CC1,.,0,-2.3,-5,2%,
COCc1cc(C)nc(SCC[N+](C)(C)CC(=O)c2ccc(Br)cc2)c1C#N,.,-12,0.0,-5,8%,
Cc1c(Cl)cccc1NC(=S)NCCC(c1ccccc1)c1ccccc1,-27,-27,15,-3,6%,
O=[N+]([O-])c1cccc(S(=O)(=O)NCc2ccccn2)c1,.,.,-0.9,1,.,
COc1ccc(-n2nnnc2SCC(=O)N2CCN(C(=O)c3ccco3)CC2)cc1OC,.,3,-0.5,-1,3%,
Cc1ccc(S(=O)(=O)c2c(C)cc(C)nc2N2CCOCC2)cc1,.,8,4.6,3,2%,
O=c1oc2cc(OCc3ccc(F)cc3F)ccc2cc1-c1ccccn1,-40,-7,-20,15,2%,
CC(C)(C)N1CC(c2nc3ccccc3n2Cc2ccc(F)cc2)CC1=O (stereo unspecified),-2,1,1.9,0,-1%,
Cc1cccc2nc(CSc3nnc(N)s3)cn12,.,1,-6.9,-6,1%,
COc1ccc(NC(=O)c2oc3ccccc3c2C)cn1,.,.,2.8,3,.,
O=C(c1cnn2c(C(F)(F)F)cc(-c3cccs3)nc12)N1CCN(Cc2ccccc2)CC1,-25,-10,-30,67,4%,
Oc1ccccc1-c1cc(-c2ccc(F)cc2)n[nH]1,.,.,11,11,.,
O=c1c(C(c2ccc(Br)cc2)c2c(O)nc3n(c2=O)CCS3)c(O)nc2n1CCS2,.,.,-1.4,-4,4%,
COC(=O)c1sccc1NC(=O)CC1NCCNC1=O (stereo unspecified),.,.,0.4,-5,-3%,
CCCCCc1ccc(OCCCC[n+]2ccccc2)c(CCCCC)c1,.,-24,3.5,99,?,
CCCn1cc(S(=O)(=O)c2ccc(F)cc2)c(=O)c2cc(OCC)ccc21,.,.,0.2,?,.,

# Six entries drawn at random from those above:
SMILES,YopH PTP inh,Arbovirus anti,RecA intein inh,Mtb bLac sens,Mtb growth,others
O=C(c1cnn2c(C(F)(F)F)cc(-c3cccs3)nc12)N1CCN(Cc2ccccc2)CC1,-25,-10,-30,67,4%,
Cc1ccc(S(=O)(=O)c2c(C)cc(C)nc2N2CCOCC2)cc1,.,8,4.6,3,2%,
CCCCCc1ccc(OCCCC[n+]2ccccc2)c(CCCCC)c1,.,-24,3.5,99,?,
COC(=O)c1sccc1NC(=O)CC1NCCNC1=O (stereo unspecified),.,.,0.4,-5,-3%,
CC1(c2ccccc2)NC(=O)N(CC(=O)Nc2cccc(/C=C/c3ccccn3)c2)C1=O (stereo unspecified),.,.,2.0,4,.,
CCCn1cc(S(=O)(=O)c2ccc(F)cc2)c(=O)c2cc(OCC)ccc21,.,.,0.2,?,.,

# (next part)
SMILES,YopH PTP inh,Arbovirus anti,RecA intein inh,Mtb bLac sens,Mtb growth,others
O=C(O)/C=C/C(=O)NCCNc1ncc(C(F)(F)F)cc1Cl,.,7,1.1,5,-2%,
COc1cccc(C(=O)NCCS(=O)(=O)NCc2ccccn2)c1,.,.,-1.0,2,.,
CC(C)n1c(CSCc2ccc(Cl)cc2Cl)n[nH]c1=S,.,7,9.5,-10,2%,
CC1=C(c2ccc(F)cc2)[N+](=O)C(C)(C)N1[O-],.,8,-1.4,-12,-5%,
CN1CCc2nc3ccc(Cl)cc3c(-c3ccccc3Cl)c2C1,-5,3,5.0,11,9%,
CC1CCN(C(=O)COc2cccc3c2CCN(C)C3=O)CC1,.,13,-10,12,3%,
C/C(=N\N1CCCCCC1)c1c(O)n(-c2ccc(Cl)cc2)c(=O)[nH]c1=O,.,.,0.3,-11,0%,
COc1ccc(CC(=O)Nc2ncc([N+](=O)[O-])s2)cc1OC,.,2,13,-7,-5%,
O=S(=O)(c1ccc(N2CCOCC2)c(Cl)c1)N1CCOCC1,.,.,3.3,-5,.,
CC(C)=NOc1nc(NC(=O)NS(=O)(=O)c2ccccc2Cl)nc(N(C)C)n1,.,.,-0.7,-6,.,
Cc1nn(CC(=O)N(C)Cc2ccc(F)cc2)c(C)c1[N+](=O)[O-],-16,-5,-3.7,-10,3%,
COC(=O)C1=CN(CC2CCCO2)C=C(C(=O)OC)C1c1ccccc1C(F)(F)F (stereo unspecified),2,3,.,4,8%,
CCOC(=O)N1CCN(C(=O)C2CCC(CNS(=O)(=O)c3ccc(Cl)cc3)CC2)CC1 (stereo unspecified),-32,8,-2.5,-5,-2%,
CCOc1ccc(N(C(=O)/C=C/C(=O)Nc2cc(C)on2)C(C(=O)NC2CCCC2)c2ccccc2C)cc1 (stereo unspecified),-35,-11,28,98,21%,
C/C(=N/NC(=O)c1ccccc1O)c1ccc(N2C(=O)C3CCCCC3C2=O)cc1 (stereo unspecified),-26,0,6.4,-6,-18%,
O=C1CCN(Cc2ccccc2)CCN1[C@H](CO)Cc1ccccc1,.,.,-0.9,-2,.,
COc1ccc(C(=O)N2CCCC(CCC(=O)NCc3ccc(F)c(F)c3)C2)o1 (stereo unspecified),.,-2,-5.4,1,-3%,
Cc1nn(CC(=O)N2CCN(c3ccccc3)CC2)c(=O)c2cccn12,.,.,-1.3,-10,.,
COc1cc(OC)cc(-c2cn[nH]c2N)c1,.,5,3.7,6,4%,
CCCN1C(=O)c2cc(C(=O)O)ccc2C1O (stereo unspecified),-5,9,11,5,-6%,
O=C(/C=C\Nc1ccc2c(c1)OCO2)c1ccc(Cl)s1,.,-27,-3.2,2,?,
CN(Cc1ccccc1)c1ccc(S(=O)(=O)N2CCOCC2)cn1,-2,2,2.9,-8,-4%,
CCS(=O)(=O)Nc1cccc(C2=NN(S(=O)(=O)c3ccc(F)cc3)C(c3cccs3)C2)c1 (stereo unspecified),-25,2,5.6,-6,7%,
CC(CN1CCCCC1)OC(=O)C1c2ccccc2Oc2ccccc21 (stereo unspecified),-15,2,1.0,-3,-21%,
O=S(=O)(c1ccccc1)c1nc(-c2ccco2)oc1NCc1ccco1,-19,1,1.3,-7,-10%,
O=C(NCCCN1CCCC1)c1ccc2c(c1)N(Cc1cccc(Cl)c1)C(=O)c1ccccc1S2=O (stereo unspecified),.,.,-1.5,10,.,
Cc1nn(C)c(Oc2cccc(Cl)c2)c1C#N,.,10,2.0,-6,4%,
C[n+]1cc[nH]c1SCC(=O)c1ccc(Cl)cc1,.,-1,4.0,-4,5%,
Cc1nc2sc(C(c3ccco3)N3CCN(c4ccc(F)cc4)CC3)c(O)n2n1 (stereo unspecified),.,3,0.7,-9,-1%,Arbovirus anti repeat=6
O=Cc1cccn1-c1ccc2ccccc2c1,.,-12,1.5,-4,6%,
COc1ccc(C(=S)N2CCN(c3ccccc3Cl)CC2)cc1OC,.,.,8.1,1,8%,
O=C(CC12CC3CC(CC(C3)C1)C2)NCC(=O)OCc1cc(=O)oc2ccc3ccccc3c12,-39,4,-2.8,73,2%,
COc1ccccc1C(C#N)c1cccc(Cl)n1 (stereo unspecified),.,.,1.0,1,.,
O=C(N/N=C1/CN2CCC1CC2)c1cccc(O)c1,-15,2,-1.2,-3,-7%,
Cc1ccccc1-n1c(C)nnc1SCc1nc2ccccc2s1,-20,14,3.0,1,-11%,
CC(C)c1ccccc1OCCCN1CCCC1,.,.,-2.9,-2,.,
Cn1c(CCNC(=O)c2ccccc2)nc2ccccc21,23,0,-1.9,0,-12%,
COCCCN(C(=S)NC(=O)c1ccc(Br)cc1)c1c(N)n(Cc2ccccc2)c(=O)[nH]c1=O,.,-3,-1.4,5,4%,
O=C(c1cccc(-n2cccc2)c1)N1CCN(S(=O)(=O)c2ccc(F)cc2)CC1,.,.,-1.5,4,.,
O=C(NC1CCCC1)c1ccccc1-c1nc2ccccc2[nH]1,-2,-1,-3.0,10,-4%,
CSCCCN1CCCC(CO)(Cc2ccccc2F)C1 (stereo unspecified),.,.,-0.8,-3,.,
COc1cccc(-c2ccc3nnc(SCC(=O)N4CCCC4)n3n2)c1,.,.,0.4,-1,.,
COc1cccc(/C=N/NC(=O)CNC(=O)c2ccncc2)c1O,.,.,-3.8,1,.,
Cc1ccc(NC(=O)CNC(c2ccccc2)c2ccccc2)c(F)c1,-2,7,-0.6,-3,14%,
CCOc1ccc(C(=O)N(c2ccccn2)C2CCCCC2)cc1,.,10,0.5,-6,1%,
O=C(Cc1cccs1)Nc1nc2c(ccc3ccccc32)s1,-4,-1,14,34,6%,
CN(C)C1(CNC(=O)C2CCN(S(=O)(=O)c3ccccc3C(F)(F)F)CC2)CCCCC1,.,.,1.5,0,.,
COc1ccccc1NC(=O)CSc1nc2c(oc3ccccc32)c(=O)n1C,.,.,2.4,2,.,
Cc1ccc2c3c(c(SCC(=O)Nc4nonc4C)nc2c1)CCCC3,-24,-11,0.7,?,7%,
CCCC(=O)N1CC(=O)Nc2ccc(C)cc2C1c1ccccc1 (stereo unspecified),.,.,0.9,3,.,

# The listing continues.
SMILES,YopH PTP inh,Arbovirus anti,RecA intein inh,Mtb bLac sens,Mtb growth,others
O=C(CCNC(=O)c1ccco1)Nc1ccccc1,.,.,-2.9,0,.,
Cc1nc(NC(=O)C(C)Oc2cccc(Cl)c2)sc1C(=O)N(C)C (stereo unspecified),-18,1,1.4,5,-1%,
CC(C)(C)C(=O)/C=c1\[nH]c(=O)/c(=C\c2ccc(C#N)cc2)s1,-22,2,4.5,93,75%,
O=C(O)c1cc(S(=O)(=O)N2CCN(c3ccccn3)CC2)ccc1Cl,.,4,0.9,-9,1%,
O=c1[nH]c(CN2CC=C(c3ccccc3)CC2)nc2scc(-c3ccccc3)c12,.,.,-0.2,0,0%,
CCc1cc2ccc(OC)cc2nc1SCC(=O)Nc1cc(C)on1,6,3,1.1,41,0%,
NS(=O)(=O)c1ccc(NC(=O)c2cc(-c3cc(Cl)ccc3O)n[nH]2)cc1,.,.,-1.7,4,.,
COc1ccc(C(=O)NCC(c2ccco2)N2CCc3ccccc32)cc1OC (stereo unspecified),.,.,0.3,-9,.,
COCCn1c(C)cc2c(c1=O)C(c1ccccc1F)C(C#N)=C(N)O2 (stereo unspecified),-24,0,-1.7,10,-6%,
CC(=O)Nc1cccc(OCC(O)Cn2c(C)nc3ccccc32)c1 (stereo unspecified),3,-1,-5.7,-2,-3%,
CN1CCN(c2ccc(NC(=O)COc3cccc4ccccc34)cc2)CC1,.,.,-0.5,1,.,
Cc1noc(-c2ccccc2)c1NC(=O)Nc1ccc(Cl)cc1,.,.,.,1,-2%,
S=c1[nH]nc(C2CCCCC2)n1/N=C/c1ccco1,-32,16,-2.4,7,16%,

# Bioassay records deposited in PubChem BioAssay by several laboratories.

# These rows are one share of the data. The share of hits here may be higher or lower than overall.
